Screens: PubChem BioAssay, Johns Hopkins Ion Channel Center
KCNQ2 pot = enhances the rat KCNQ2 potassium channel. O88943. CHO-K1 KCNQ2, FluxOR thallium flux fluorescence; stronger effect = higher value. B-score at 10 µM. actives 0.54% (n = 310,000);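 active = fluorescence ratio B-score at least 3 SD of library B-scores, with initial fluorescence B-score within 3 SD, cut at about 5.3 in these data; same plate scores as AID 2156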;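 also: B-score of peak minus minimum over baseline fluorescence ratio after K+ and Tl+ stimulus; positive B-score means potentiation of KCNQ2 with more thallium influx and brighter signal; only the inactives scoring about 0 or higher are listed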
Target sequence (O88943 whole entry, looked up): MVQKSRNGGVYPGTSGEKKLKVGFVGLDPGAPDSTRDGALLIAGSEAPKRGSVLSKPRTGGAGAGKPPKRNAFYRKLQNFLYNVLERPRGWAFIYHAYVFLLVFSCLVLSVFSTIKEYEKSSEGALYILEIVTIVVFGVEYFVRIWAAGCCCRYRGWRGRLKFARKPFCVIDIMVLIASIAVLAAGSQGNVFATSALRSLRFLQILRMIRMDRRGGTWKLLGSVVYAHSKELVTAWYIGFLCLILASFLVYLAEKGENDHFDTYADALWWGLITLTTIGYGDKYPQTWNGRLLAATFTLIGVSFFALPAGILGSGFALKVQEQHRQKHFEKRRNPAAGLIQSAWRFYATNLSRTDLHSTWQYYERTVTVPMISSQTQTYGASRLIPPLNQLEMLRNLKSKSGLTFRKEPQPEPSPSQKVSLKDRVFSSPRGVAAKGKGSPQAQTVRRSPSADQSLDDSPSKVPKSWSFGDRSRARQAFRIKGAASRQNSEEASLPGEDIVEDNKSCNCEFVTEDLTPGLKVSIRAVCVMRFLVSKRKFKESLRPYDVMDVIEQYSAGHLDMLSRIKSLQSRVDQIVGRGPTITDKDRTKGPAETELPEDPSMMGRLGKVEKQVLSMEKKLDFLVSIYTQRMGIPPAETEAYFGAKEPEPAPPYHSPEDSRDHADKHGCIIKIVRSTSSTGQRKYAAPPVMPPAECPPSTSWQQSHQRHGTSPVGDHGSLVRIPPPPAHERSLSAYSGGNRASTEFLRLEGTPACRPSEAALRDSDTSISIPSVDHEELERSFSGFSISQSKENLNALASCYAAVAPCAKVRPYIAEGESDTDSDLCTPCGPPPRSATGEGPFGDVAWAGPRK
KCNQ2 pot baseline = also measured in KCNQ2 pot; calls as there; B-score; compound at 10 µM; measured here: initial fluorescence intensity artifact check;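 brightness before thallium and not channel activity; 0 = typical well and far values either way flag optical interference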
* hit, by the source's call.

| Structure | KCNQ2 pot | KCNQ2 pot baseline |
| --- | --- | --- |
| Cc1cc(C)c(C(N)=O)c(Nc2ccc3c(c2)OCCO3)n1 | 1.55 | -0.68 |
| CCCOc1ccc(C(=O)CCC(=O)OCC(=O)Nc2ccc(OCC)cc2)cc1 | 1.47 | 1.62 |
| CC(C)=CCC/C(C)=C/C(N)=O | 0.67 | -1.31 |
| COc1ccc(OC)c(C(C)NC(=O)Nc2ccccc2)c1 (stereo not given) | 9.56* | 0.71* |
| COc1cccc(NC(=O)CN2CCN(C(=O)c3ccco3)CC2)c1 | 0.15 | 0.09 |
| CCn1c(CNC(=O)COC)nc2ccccc21 | 1.49 | -0.16 |
| COCCN(Cc1cc2ccccc2[nH]c1=O)C(=O)c1ccccc1OC | 0.8 | 1.72 |
| O=C(CCc1c[nH]c2ccccc12)NC1CC1 | 0.45 | -0.63 |
| COc1ccc(C(=O)NNC(=O)C(Cc2ccc(O)cc2)NC(=O)c2ccccc2NC(=O)c2ccc(OC)cc2)cc1 (stereo not given) | 0.66 | -1.6 |
| COc1cc(C(=O)N(Cc2cc3cc(C)ccc3[nH]c2=O)CC2CCCO2)cc(OC)c1OC (stereo not given) | 0.01 | -1.78 |
| Brc1ccccc1/C=N/Nc1nc2ccccc2o1 | 0.09 | -0.22 |
| CCOC(=O)c1cc(-c2ccccc2)n[nH]1 | 1.23 | -1.3 |
| Cc1ccc(/C=N/N(C)S(=O)(=O)c2ccc(C)cc2)cc1 | 0.55 | -0.02 |
| Cc1ccc(C(=O)NC2CCN(S(=O)(=O)c3ccc(F)cc3)CC2)cc1 | 0.24 | -1.16 |
| CCCCCOCC(O)CCC(=O)NN (stereo not given) | 0.3 | 2.7 |
| Cc1csc(NC(=S)NC(=O)c2ccccc2)n1 | 4.55 | 1.12 |
| COc1cc(C(=O)Oc2ccccc2/C=N/NC(=O)c2ccc(C)c(Cl)c2)cc(OC)c1OC | 0.4 | -1.76 |
| C=CCc1cc(C=O)cc(OC)c1OCc1c(Cl)cccc1Cl | 0.02 | -0.21 |
| Cc1ccc(N2C(N)=NC(N)=NC23CCCC3)c(C)c1 | 0.52 | 2.26 |
| COCCn1c(-c2cccc([N+](=O)[O-])c2)nc2c1c(=O)[nH]c(=O)n2Cc1ccccc1 | 0.05 | -1.54 |

New compounds follow
| Structure | KCNQ2 pot | KCNQ2 pot baseline |
| --- | --- | --- |
| CCc1ccc(-c2nc(NC(=S)NC(=O)c3cccs3)sc2C)cc1 | 1.69 | 0.56 |
| Cc1cc(C(=O)Cn2nc(C(=O)O)c3ccccc3c2=O)c(C)n1-c1ccccc1 | 0.81 | -0.15 |
| Cc1ccc(N(C(=O)CCC(=O)Nc2ccccn2)C(C(=O)NC(C)C)c2ccc(F)cc2)cc1 (stereo not given) | 2.33 | -1.28 |
| COc1ccc(-c2nnc(SCC#N)o2)cc1 | 1 | 0.45 |
| O=c1c2ccccc2nc(CSc2nnnn2-c2ccccc2)n1-c1ccccc1Cl | 1.1 | -1.16 |
| Cc1cccc(-n2c(-c3csc(C)c3C)n[nH]c2=S)c1 | 0.08 | -0.49 |
| CCOc1ccc(CCNC(=O)c2ccc(OCc3c(C)noc3C)cc2)cc1OCC | 0.53 | 0.54 |
| O=C(O)c1ccc(NC(=O)c2ccccc2NC(=O)c2cccc(F)c2)cc1 | 0.17 | 0.92 |
| COc1cccc(CNC(=O)CCC(=O)N2CC(C)Oc3ccccc32)c1OC (stereo not given) | 0.15 | 0.78 |
| O=S(=O)(c1ccc(Oc2ccc(Br)cc2F)nc1)N1CCCCC1 | 0.56 | -0.55 |
| CCN(CC)S(=O)(=O)c1ccc2c(c1)N(CC(=O)NCc1ccccn1)C(=O)CO2 | 0.45 | -0.9 |
| CC(=O)NCCCC(=O)NN1C(=S)N(Cc2ccccc2)C(=O)C1CC(=O)Nc1cccc(C)c1 (stereo not given) | 1.09 | -1.06 |
| CC(O)CNc1nc2c(c(=O)n(Cc3ccccc3)c(=O)n2C)n1C (stereo not given) | 2.27 | -1.05 |
| OCCCNC(=S)NC1CCCC1 | 1.32 | -1.5 |
| CCCOc1c(Br)cc(/C=N/O)cc1OC | 0.31 | -0.07 |
| O=C(CSc1ccc(Br)cc1)Nc1ccc(N2CCOCC2)cc1 | 0.61 | 0.08 |
| CCOc1ccccc1OCC(=O)OCC(=O)c1c(C)[nH]c2ccccc12 | 2.09 | -1.67 |
| Cc1ccc(CN2C(=O)N/C(=C/c3ccc(-c4ccc(C(=O)O)cc4)o3)C2=O)cc1 | 0.59 | -0.03 |
| CC(C)Oc1ccc(CN=C(N)N=C(N)N)cc1Cl | 0.24 | -0.1 |
| CCN1CCN(CC(=O)Nc2cc(C)c(C)cc2[N+](=O)[O-])CC1 | 1.67 | 2.21 |

By substructure: the compounds so far containing an aryl thioether with sulfur outside any ring.
| Structure | KCNQ2 pot | KCNQ2 pot baseline |
| --- | --- | --- |
| COc1ccc(-c2nnc(SCC#N)o2)cc1 | 1 | 0.45 |
| O=c1c2ccccc2nc(CSc2nnnn2-c2ccccc2)n1-c1ccccc1Cl | 1.1 | -1.16 |
| O=C(CSc1ccc(Br)cc1)Nc1ccc(N2CCOCC2)cc1 | 0.61 | 0.08 |

The listing continues.
| Structure | KCNQ2 pot | KCNQ2 pot baseline |
| --- | --- | --- |
| CC1=CC(C)C2(CO)COC(c3ccccc3O)C1C2C (stereo not given) | 2.46 | -0.03 |
| Cc1ccc2[nH]c3c(c2c1)CCC3=O | 1 | -0.01 |
| COc1cc2c(cc1NC(=O)CCC(=O)O)oc1ccccc12 | 0.45 | -0.99 |
| Cc1ccc(C(=O)N(CC(=O)NC2CCCCC2)c2ccccc2F)s1 | 0.76 | -1.18 |
| COc1ccc2c(-c3cccnc3)cc(=O)[nH]c2c1 | 0.77 | 0.24 |
| COc1ccc(C2(C)NC(=O)N(CC(=O)Nc3ccc4c(c3)OCO4)C2=O)cc1OC (stereo not given) | 0.98 | -2.53 |
| O=C(CNC(=S)NC(=O)c1ccco1)c1ccccc1 | 0.65 | 1.72 |
| Cc1nnc(SCCn2c(Br)nc3c2c(=O)[nH]c(=O)n3C)s1 | 0.15 | 0.05 |
| NC1=NC(=O)/C(=C/c2cccc(-c3ccc(S(N)(=O)=O)cc3)c2)S1 | 0.09 | 0.72 |
| CC12COC3(C(=O)Nc4ccc([N+](=O)[O-])cc4)CC1CCC32C (stereo not given) | 0.11 | 0.94 |
| COC(=O)c1c(N)n(-c2ccc(NC(C)=O)cc2)c2nc3ccccc3nc12 | 0.65 | -1.6 |
| C=C1C(C(=O)Nc2ccc(OCC)cc2)C1C(=O)Nc1ccc(OCC)cc1 (stereo not given) | 0.12 | -1.38 |
| C/C=C/c1ccc(OCCCCOc2ccc(OC)cc2)c(OC)c1 | 0.1 | 1.02 |
| S=C(NCc1cccs1)Nc1cccc(Cl)c1Cl | 3.89 | 0 |
| CC(=O)Cc1nsc(NC(=O)c2ccc(-c3ccc(Cl)c(Cl)c3)o2)n1 | 1.75 | -0.52 |
| O=C(CSc1ccc(-c2cccs2)nn1)N1CCCCC1 | 0.05 | -0.09 |
| Cc1ncoc1C(=O)NC1CC(C)(C)Cc2c1cnn2-c1ccccc1 (stereo not given) | 0.17 | 0.82 |
| CCOc1ccccc1NC(=O)/C(C#N)=C/c1c(C)nn(-c2ccc(F)cc2)c1Cl | 2.33 | -1 |
| O=C(CCC(=O)N1CCOc2ccccc21)Nc1ccccc1Br | 0.54 | -0.08 |
| COc1ccc(S(=O)(=O)N2CCNC(=O)C2)cc1Br | 1.12 | 0.02 |

Profiles, quoted from the list. Order of values: KCNQ2 pot | KCNQ2 pot baseline
COC(=O)c1c(N)n(-c2ccc(NC(C)=O)cc2)c2nc3ccccc3nc12 is listed as 0.65 | -1.6
C=C1C(C(=O)Nc2ccc(OCC)cc2)C1C(=O)Nc1ccc(OCC)cc1 (stereo not given) is listed as 0.12 | -1.38
S=C(NCc1cccs1)Nc1cccc(Cl)c1Cl is listed as 3.89 | 0
Cc1ncoc1C(=O)NC1CC(C)(C)Cc2c1cnn2-c1ccccc1 (stereo not given) is listed as 0.17 | 0.82
NC1=NC(=O)/C(=C/c2cccc(-c3ccc(S(N)(=O)=O)cc3)c2)S1 is listed as 0.09 | 0.72

New compounds follow
| Structure | KCNQ2 pot | KCNQ2 pot baseline |
| --- | --- | --- |
| COc1cccc(N2CC(C(=O)Nc3nnc(SCC(=O)N4CCOCC4)s3)CC2=O)c1 (stereo not given) | 0.78 | 1.06 |
| Cn1c(-c2cccc([N+](=O)[O-])c2)cnc1NCc1ccc(C#N)cc1 | 0.98 | 0.03 |
| Cc1cc2oc(=O)cc(CN3CCN(Cc4ccccc4)CC3)c2cc1O | 0.27 | 1.79 |
| Cc1ccc(NC(=O)c2nccnc2C(=O)O)cc1C | 0.44 | 1.82 |
| O=C(c1ccccc1F)N1CCN(c2ccccn2)CC1 | 0.55 | -1.02 |
| CCCn1nc(C(=O)NNC(=O)c2cc(S(=O)(=O)NC)ccc2Br)c2ccccc2c1=O | 1.31 | -1.25 |
| Cc1cccc(N(Cc2ccccc2)C(=O)c2ccc(S(C)(=O)=O)cc2)c1 | 0.54 | 0.16 |
| CC1(C)CC(=O)/C(=C(\O)c2ccccc2)C(=NCCO)C1 | 0.22 | -0.17 |
| CC(=O)OCC(OC(C)=O)C(OC(C)=O)C(OC(C)=O)C(=O)Nc1ccccc1 (stereo not given) | 0.36 | 2.25 |
| CNc1ncnc(Sc2ccc(Cl)cc2)c1[N+](=O)[O-] | 2.3 | -0.38 |
| O=C(COC(=O)C1CC1)Nc1ccc2c(c1)OCO2 | 0.68 | -0.49 |
| COC(=O)c1ccccc1NC(=O)CSc1nnc(-c2cccnc2)o1 | 1.1 | 0.12 |
| CCC(=O)c1ccc(OCC(O)CN2CCOCC2)cc1 (stereo not given) | 1.32 | -0.12 |
| CCN(CC(=O)Nc1ccccc1C(F)(F)F)C(=O)CN1C(=O)NC2(CCCCC2)C1=O | 0.18 | 0.55 |
| COc1cccc(-c2cc(C(=O)N3CCN(C(=O)c4ccco4)CC3)[nH]n2)c1 | 0.05 | 1.4 |
| COc1ccc(OCc2nnc(SCC(=O)N3CCOCC3)o2)cc1 | 0.78 | 0.02 |
| COc1ccccc1NC(=O)C(C)OC(=O)Cc1n[nH]c(=O)c2ccccc12 (stereo not given) | 0.51 | 1.29 |
| CN(CCO)C(=O)CCC(=O)Nc1ccc(S(N)(=O)=O)cc1 | 0.42 | 0.09 |
| CCn1c(CNC(=O)c2cccc(C)c2)nnc1SCC(=O)NC1CCCC1 | 0.77 | 1.06 |
| COc1ccc(Cl)cc1N(CC(=O)N1CCCCC1)S(C)(=O)=O | 1.13 | -0.77 |

(next part)
SMILES	KCNQ2 pot	KCNQ2 pot baseline
COc1cccc(C2/C(=C(/O)c3ccc4c(c3)CC(C)O4)C(=O)C(=O)N2CC2CCCO2)c1 (stereo not given)	1.59	-0.03
Cc1ccc(-c2cc(-c3nnc(SCC(=O)N(C)CCC#N)n3N)c3ccccc3n2)cc1	1.09	-0.8
CSCC[C@H](NS(=O)(=O)c1ccc(C)cc1)C(=O)N1CCC(C(=O)N[C@@H](C)C(=O)O)CC1	0.8	1.74
CC(=O)NN1C(=O)/C(=C2/Sc3ccc(Cl)cc3N2C)SC1=S	0.46	-0.28
Cc1ccc(NCc2nnc(SCC(N)=O)o2)c(C)c1	0.07	0.75
C[n+]1ccc(C(=O)N/N=C/c2ccco2)cc1	0.77	1.13
COCCNC(=O)C(c1ccc(C)o1)N(Cc1ccc(F)cc1)C(=O)Cn1nnc2ccccc21 (stereo not given)	0.63	-0.8
O=C(Oc1ccc(OC(=O)N2CCCCC2)cc1)c1ccccc1	0.08	0.72
CC(Cc1cccs1)NC(=O)c1cccc(Cl)c1 (stereo not given)	0.71	-0.2
CCc1cc2c(SCC(=O)N(C)C3CCS(=O)(=O)C3)ncnc2s1 (stereo not given)	0.09	-1.06
CC(=O)Nc1ccc(NC(=O)CNS(=O)(=O)c2ccc(C)cc2)cc1	1.48	0.73
COCc1cc(S(=O)c2ccc(Cl)cc2)nc(C)n1 (stereo not given)	0.02	-0.44

Next compounds follow.
SMILES	KCNQ2 pot	KCNQ2 pot baseline
CCCC(=O)Nc1ccccc1N1CCN(C(=O)C(C)C)CC1	0.68	0.42
COc1ccccc1/C=C/CN1CCCC(CCC(=O)NCc2ccc(F)c(F)c2)C1 (stereo not given)	0.11	-0.58
C(=N\Nc1ccccn1)/c1ccc(N2CCOCC2)cc1	0.97	0.66
CCC(=O)NCCn1ccc2ccccc21	0.58	1.46
CC(/C=C/c1ccccc1)NC(N)=O (stereo not given)	0.91	-0.04
CC(=O)Nc1ccc(/C=N/N2C(=O)NC(C)(c3ccc(OC(F)F)cc3)C2=O)cc1 (stereo not given)	18.3*	0.3*
CN1/C(=C\C(=O)c2cccs2)Sc2ccccc21	2.09	-0.71
Cn1cnc2c1c(=O)n(CC(O)CO)c(=O)n2C (stereo not given)	0.73	-0.46
O=C1COc2ccc(-c3csc(NCCc4ccccc4)n3)cc2N1	1.47	0
CCCC(=O)Nc1ccc(C(=O)N/N=C2\CC(=O)CC(C)(C)C2)cc1	0.53	1.33
CC(c1ccon1)N(C)C(=O)c1ccc2nc(Cc3cccc(Cl)c3)oc2c1 (stereo not given)	0.39	3.49
CCn1c(=N)n(CC(=O)C(C)(C)C)c2ccccc21	0.22	-0.16

(further entries)
SMILES	KCNQ2 pot	KCNQ2 pot baseline
CC(C)(C)NC(=O)N1CCCN(c2ccc(C(F)(F)F)cn2)CC1	0.63	-0.75
Cc1ccc2cc(C(c3nnnn3Cc3ccccc3)N3CCc4ccccc43)c(=O)[nH]c2c1C (stereo not given)	3.16	-1.1
N#CCCn1cc(/C=N/O)c(-c2ccc(Cl)cc2)n1	0.08	1.03
COc1ccccc1NC(=O)c1ccc(CS(=O)(=O)c2ccc(C)cc2)cc1	1.21	-0.02
CCCCNC(=O)N1CCN(c2ccccc2OC)CC1	0.11	-0.31
O=C(c1cccc([N+](=O)[O-])c1)N1CCCC(C(=O)N2CCCCCC2)C1 (stereo not given)	0.46	0.14
Cc1ccccc1NC(=S)NC(=O)C1CCCCC1	0.45	2.27

An excerpt; the hit share may differ from the screen's.
